Polio RdRp inh = poliovirus RNA polymerase inhibition; 150,000 tested, 0.66% active; P03300; % elongation, % (compound at 16.7 µg/mL); poliovirus polymerase elongation, fluorescence polarization; hits give low values; in the data active = % elongation below about 90%; note: some results filed as inactive read as strong as hits
Target sequence (P03300 1749-2209 limits assumed): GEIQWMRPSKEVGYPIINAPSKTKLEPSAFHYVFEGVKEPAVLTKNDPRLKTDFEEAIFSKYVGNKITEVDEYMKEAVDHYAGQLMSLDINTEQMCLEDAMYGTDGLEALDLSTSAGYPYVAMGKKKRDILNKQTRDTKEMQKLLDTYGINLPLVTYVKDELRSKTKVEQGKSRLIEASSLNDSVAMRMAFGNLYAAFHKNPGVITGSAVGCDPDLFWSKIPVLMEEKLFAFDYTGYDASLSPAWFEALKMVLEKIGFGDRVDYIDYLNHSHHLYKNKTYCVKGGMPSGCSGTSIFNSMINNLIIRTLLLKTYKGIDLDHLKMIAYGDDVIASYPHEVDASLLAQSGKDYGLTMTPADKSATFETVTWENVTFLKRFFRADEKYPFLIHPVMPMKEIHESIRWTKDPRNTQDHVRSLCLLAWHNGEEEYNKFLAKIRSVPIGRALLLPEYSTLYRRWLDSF
MenB inh = inhibitors of Mycobacterium tuberculosis MenB enzyme; P9WNP5; MenB enzyme assay, absorbance read-out; some hits fall short of the stated cut; inhibition, %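 (about 12 µg/mL by stock and volumes)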; 100,000 tested, 0.43% active;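 active = mean of two replicates above 30%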;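 note: 0% = no compound and 100% = wells with inactive enzyme; the first replicate is given; strong numbers were not always called active; inactives centre near -10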
Target sequence (P9WNP5 whole entry, looked up): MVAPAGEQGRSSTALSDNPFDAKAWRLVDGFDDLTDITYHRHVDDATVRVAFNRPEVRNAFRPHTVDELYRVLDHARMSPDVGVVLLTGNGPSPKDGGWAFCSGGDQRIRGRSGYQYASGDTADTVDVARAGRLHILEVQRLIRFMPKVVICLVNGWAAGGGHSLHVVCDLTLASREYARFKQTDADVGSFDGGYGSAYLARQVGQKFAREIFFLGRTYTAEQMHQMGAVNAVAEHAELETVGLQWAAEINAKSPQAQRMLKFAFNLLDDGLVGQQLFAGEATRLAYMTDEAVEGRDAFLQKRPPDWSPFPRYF
Mtb MbtI inh = inhibitors of Mycobacterium tuberculosis siderophore enzyme MbtI. inhibition, %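 (about 17 µg/mL by stock and volumes)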. purified MbtI enzyme, fluorescence intensity read-out. 100,000 tested, 0.89% active. P9WFX0. AID 493033;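 active = above 50% in both replicates, above 80% if mildly self-fluorescent; inactive = the rest, strongly fluorescent compounds included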;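 note: 0% = mean of negative and 100% = mean of positive controls; one replicate is shown; some compounds called inactive have numbers as strong as hits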
Polio RdRp inh intensity = second read-out of Polio RdRp inh, no call of its own (marks repeat the call); % elongation; measured here: total intensity read-out; formula for this scale not given here;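 total fluorescence in place of polarization; lower means less elongation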
Starred values were filed as active, the others as inactive; · = not tested or not shown; & = joins results of further samples.

SMILES | Polio RdRp inh | Polio RdRp inh intensity | MenB inh | Mtb MbtI inh
O=C(CN1CCN(c2cccc(Cl)c2)CC1)NC1CCCc2ccccc21 (stereo unspecified) | 102 | 102 | -39 | 2
COc1cn(-c2ccccc2)nc1C(=O)NCc1ccc(C)cc1 | 95 | 96 | -5 | 1
O=C1C2C3C=CC(C3)C2C(=O)N1/N=C/c1ccccc1O (stereo unspecified) | 100 | 99 | -12 | -5
O=c1[nH]nc(-c2cccs2)cc1CC1CCCCC1 | 104 | 102 | -4 | -11
CNC(=S)N1CCN(C(c2ccccc2)c2ccccc2)CC1 | 102 | 100 | 2 | -6
O=C(NCCc1ccc(Cl)cc1)c1cc(=O)[nH]c2ccc(Br)cc12 | 102 | 104 | -2 | -3
COc1cc(C(=O)NCC(c2cccnc2)N2CCOCC2)cc(OC)c1OC (stereo unspecified) | 101 | 106 | -1 | -12
O=C(Cc1noc2ccccc12)NCc1ccccc1 | 99 | 102 | 13 | -4
O=C1CCCN1c1ccc(S(=O)O)cc1 | 102 | 98 | -67 | 21
Cc1cc(-c2csc(NC3=NCCCCC3)n2)c(C)n1Cc1ccccc1 | 100 | 105 | -22 | -5
Nc1nc2c(ncn2COC(CO)CO)c(=O)[nH]1 | 99 | 99 | -3 | -8
O=C(CSCc1ccc(Br)cc1)N1CCCC1 | 101 | 100 | -1 | -1
CC(=O)NS(=O)(=O)c1ccc(N)cc1 | 100&100 | 101&102 | 2&15 | -14&-11
NC(=O)c1ccc(-c2ccccc2)o1 | 94 | 96 | 11 | 125
CCN(CC)S(=O)(=O)c1ccc(N2CCCCC2)c(C(=O)O)c1 | 103 | 103 | -10 | 7
CCC(C)NC(=O)C1CCCN(S(=O)(=O)c2ccc(C)cc2)C1 (stereo unspecified) | 102 | 97 | -8 | -13
CC1CN(C(=O)COC(=O)c2cccs2)CC(C)O1 (stereo unspecified) | 104 | 99 | 1 | -10
N#CCCn1c(SCc2cc3c(cc2Br)OCO3)nc2ccccc21 | 100 | 101 | -24 | 14
CC1CCN(CCCNC(=O)C2(S(=O)(=O)c3ccc(Cl)cc3)CC2)CC1 | 101 | 106 | -1 | -7
O=C(COC(=O)c1cc2ccccc2oc1=O)Nc1ncccn1 | 88* | 93* | -21 | -96
O=C(Nc1ccc(N2C(=O)C3C4C=CC(C4)C3C2=O)cc1)Nc1ccccc1O (stereo unspecified) | 101 | 101 | 11 | -1
NC(CCc1nc2ccccc2[nH]1)c1nc2ccccc2[nH]1 (stereo unspecified) | 100 | 104 | -3 | -25
C#CC1(NC(=O)NC(=O)c2ccccc2Cl)CCCCC1 | 107 | 104 | -13 | 11
COc1ccc(S(=O)(=O)NC2CCCc3ccccc32)cc1OC (stereo unspecified) | 104 | 105 | -11 | -4
CCOc1ccc(C(=O)NN2CCN(C)CC2)cc1 | 100 | 100 | -8 | -9
CC(C)CCNC(=O)C1CCCN(S(=O)(=O)N2CCOCC2)C1 (stereo unspecified) | 100 | 102 | 5 | -7
COc1cccc(-n2cc(C(=O)Nc3ccc(C)cn3)c3ccccc3c2=O)c1 | 99 | 101 | 2 | 75
Clc1cccc(Cl)c1CSCc1cc2ccccc2o1 | 99 | 91 | -12 | -3
Cc1cc(C)n(CCc2nnc(N)s2)n1 | 104 | 104 | -12 | -10
CN(C)CCOC(=O)C1(C#N)CC2c3ccccc3C1c1ccccc12 (stereo unspecified) | 101 | 111 | -4 | ·

Entries of single compounds from above. Screens in order: Polio RdRp inh, Polio RdRp inh intensity, MenB inh, Mtb MbtI inh
Clc1cccc(Cl)c1CSCc1cc2ccccc2o1 is listed as 99, 91, -12, -3
CC1CN(C(=O)COC(=O)c2cccs2)CC(C)O1 (stereo unspecified) is listed as 104, 99, 1, -10
O=C(Nc1ccc(N2C(=O)C3C4C=CC(C4)C3C2=O)cc1)Nc1ccccc1O (stereo unspecified) is listed as 101, 101, 11, -1
CC(C)CCNC(=O)C1CCCN(S(=O)(=O)N2CCOCC2)C1 (stereo unspecified) is listed as 100, 102, 5, -7
O=C(COC(=O)c1cc2ccccc2oc1=O)Nc1ncccn1 is listed as 88*, 93*, -21, -96

The list continues.
SMILES | Polio RdRp inh | Polio RdRp inh intensity | MenB inh | Mtb MbtI inh
Cn1c(=O)n(C)c2cc(CNC3CCCCC3)ccc21 | 102 | 100 | 1 | -4
COc1ccccc1NCCC(=O)Nc1cccc(C)c1C | 99 | 96 | 14 | 11
COC(=O)C1=C(CSc2nccn2C)NC(=O)NC1c1ccc(OC)cc1 (stereo unspecified) | 102 | 104 | -33 | 1
O=C(CSc1nnc(NC2CC2)s1)c1ccc[nH]1 | 107 | 113 | -16 | 12
CC(C)C(=O)Nc1nnc(-c2ccccc2)s1 | 87* | 89* | -7 | ·
CSc1nnc2ccc(-c3cccnc3)nn12 | 99 | 102 | 15 | 15
CCc1ccccc1NC(=O)C(Cc1cccc(OC)c1)c1nn[nH]n1 (stereo unspecified) | 101 | 104 | 18 | -11
COc1ccccc1NC(=O)N1CCN(C(c2ccccc2)c2ccccc2)CC1 | 100 | 98 | 8 | -13
CC1=C(C(=O)O)N2C(=O)[C@@H](NC(=O)[C@H](N)C3=CCC=CC3)C2SC1 (stereo partly specified) | 99 | 101 | -5 | -28
c1csc(CCNc2ncnc3sc4c(c23)CCC4)c1 | 103 | 99 | -14 | -1
COc1ccccc1CNC(=O)CSCc1nc(-c2ccccc2F)oc1C | 100 | 102 | -6 | 1
Cn1c(=O)c(C2=NN=C3NNC(c4ccccc4)C32)c(O)c2ccccc21 (stereo unspecified) | 102 | 105 | 6 | ·
CC(=O)Nc1cccc(C(=O)OCC(=O)Nc2nnc(-c3ccccc3)o2)c1 | 117 | 122 | -53 | 5
O=C(O)CC1(CC(=O)NC2CCN(Cc3ccccc3)CC2)CCCC1 | 104 | 98 | · | -2
COCCOC(=O)c1c(C)oc2ccc(NS(=O)(=O)c3c(C)cc(C)cc3C)cc12 | 102 | 102 | -17 | 13

Among those listed so far, 8 have a halogen:
SMILES | Polio RdRp inh | Polio RdRp inh intensity | MenB inh | Mtb MbtI inh
O=C(CN1CCN(c2cccc(Cl)c2)CC1)NC1CCCc2ccccc21 (stereo unspecified) | 102 | 102 | -39 | 2
O=C(NCCc1ccc(Cl)cc1)c1cc(=O)[nH]c2ccc(Br)cc12 | 102 | 104 | -2 | -3
O=C(CSCc1ccc(Br)cc1)N1CCCC1 | 101 | 100 | -1 | -1
N#CCCn1c(SCc2cc3c(cc2Br)OCO3)nc2ccccc21 | 100 | 101 | -24 | 14
CC1CCN(CCCNC(=O)C2(S(=O)(=O)c3ccc(Cl)cc3)CC2)CC1 | 101 | 106 | -1 | -7
C#CC1(NC(=O)NC(=O)c2ccccc2Cl)CCCCC1 | 107 | 104 | -13 | 11
Clc1cccc(Cl)c1CSCc1cc2ccccc2o1 | 99 | 91 | -12 | -3
COc1ccccc1CNC(=O)CSCc1nc(-c2ccccc2F)oc1C | 100 | 102 | -6 | 1

Remaining list, next part.
SMILES | Polio RdRp inh | Polio RdRp inh intensity | MenB inh | Mtb MbtI inh
CCOC(=O)C(C)Oc1cc(O)c2c(=O)cc(-c3ccccc3)oc2c1 (stereo unspecified) | 108 | 94 | -3 | -5
CC1Cc2ccccc2N1C(=O)c1ccc(Cl)cc1 (stereo unspecified) | 103 | 104 | -27 | -8
CC(C)(C)C(=O)Nc1nc(NC(=O)C(C)(C)C)nc(-c2ccccc2C(F)(F)F)n1 | 102 | 103 | -5 | -3
COCOC(=O)C1(c2ccc(Cl)cc2)CCCC1 | 100 | 106 | -29 | 0
Cc1noc(C)c1COC(=O)c1ccccc1SCC(=O)N1CCCC1 | 109 | 112 | -24 | -15
CCc1ccc(C(N)c2cccs2)cc1 (stereo unspecified) | 103 | 109 | -10 | -4
O=C(Nc1ccc2c(c1)OCCO2)c1ccccc1NCC(=O)N1CCc2ccccc21 | 99 | 104 | 2 | 20
N=C(N)N1CCN(Cc2ccc3c(c2)OCO3)CC1 | 100 | 103 | 3 | -3
N#CC(C#N)=CNCCN1CCN(C=C(C#N)C#N)CC1 | 98 | 98 | -4 | -6
CCCCN(CC)Cc1c(C)[nH]c2ccc(Cl)cc2c1=O | 103 | 102 | -1 | 1
CN(CCOc1ccc(Cl)cc1)Cc1cc2c(cc1O)OCO2 | 103 | 105 | -7 | -2
Cn1c(C(=O)N2CCCCCC2)cc2c(=O)[nH]c3ccccc3c21 | 103 | 97 | 0 | 3
CN(C(=O)C1CCCN1S(=O)(=O)c1ccc(Cl)cc1)c1ccccc1 (stereo unspecified) | 102 | 103 | · | -8
COCCn1c(=O)/c(=C\c2ccccc2OC(F)F)s/c1=C(/C#N)C(=O)N1CCOCC1 | 101 | 104 | -45 | 3
CCCCCCCC/C=C\CCCCCCCC(=O)OCC(CO)OC(=O)CCCCCCC/C=C\CCCCCCCC (stereo unspecified) | 101&102 | 103&102 | 9 | -9
CNS(=O)(=O)c1cccc(C(=O)NCCc2ccc(S(N)(=O)=O)cc2)c1 | 98 | 92 | -8 | 10
CC(C(=O)N1CCCc2ccccc21)N1C(=O)c2ccccc2C1=O (stereo unspecified) | 104 | 101 | -31 | -15
Cc1ccc2c(c1)C1OCCC1C(c1ccncc1)N2 (stereo unspecified) | 99 | 101 | 23 | -1
O=C(NCCCN1CCCC1=O)c1cccs1 | 101 | 104 | 8 | 14
CC(=O)Nc1ccc(C(=O)OCC(=O)Nc2cccc(C(F)(F)F)c2)cc1 | 105 | 108 | · | 0
O=C1CN(C(=O)C23CC4CC(CC(C4)C2)C3)CC(=O)N1CCc1ccccc1 | 101 | 98 | -3 | ·
Cc1nonc1OCC(C)(N)COc1nonc1C | 99 | 101 | -7 | -6
CCOC(=O)CSc1nnnn1-c1ccccc1 | 102 | 105 | -5 | 17
O=C(O)c1cc(NN=C2CCCC2)ccc1Cl | 96 | 96 | 13 | 5
CCOC(=O)Cn1c(=O)oc2cc(S(=O)(=O)NCc3cccc(OC)c3)ccc21 | 102 | 98 | -14 | 0
O=C(CC1CCCCC1)Nc1ccc2c(c1)OCCO2 | 97 | 96 | -10 | ·
COCCNC(=O)c1cc(-c2ccccc2F)no1 | 102 | 103 | -1 | -11
O=C(Oc1ccccc1)Oc1ccc2c(c1)oc(=O)c1ccccc12 | 103 | 109 | -1 | ·
O=C1CC(C(F)(F)F)=NN1c1ccccc1 | 106 | 103 | 13 | -4
O=C(OCC(=O)N1CCOCC1)c1ccc(-c2ccccc2)cc1 | 100 | 104 | 4 | 106
CC1=CC2=NC(C(F)(F)F)(C(F)(F)F)NC(=O)N2C=C1 | 104 | 105 | 3 | 3
Nc1cc(=O)[nH]c(SCC(=O)N(C2CCCCC2)C2CCCCC2)n1 | 103 | 102 | -6 | -1
O=C(CCn1c(SCC(=O)NC2CCCC2)nc2ccccc2c1=O)NC1CCCCC1 | 100 | 102 | -9 | -1
CCOC(=O)c1c(C)oc(-c2ccc(Cl)cc2)c1S(=O)(=O)NCc1ccccc1 | 107 | 111 | -21 | 5
COc1ccccc1-c1c(C)nn2c(NCCCN3CCCC3=O)cc(C)nc12 | 104 | 106 | -16 | -8
CN1CCN(S(=O)(=O)c2ccc3oc(=O)c4ncn(C)c4c3c2)CC1 | 102 | 100 | -6 | -179
O=C(Cn1nc(Cc2ccncc2)c2ccccc2c1=O)NCc1ccccc1 | 102 | 108 | -9 | 3
CCCCn1cnc2sc3c(c2c1=N)CCCCC3 | 103 | 107 | 10 | -4
CN1CCN(NC(=O)COc2ccc(Br)cc2Cl)CC1 | 100 | 104 | 8 | -9
CCOc1ccc(C(=O)Nc2cc(C)ccn2)cc1 | 100 | 98 | 8 | ·
Cc1ccc(C(=O)O)cc1NC(=O)CN1CC(=O)Oc2ccccc21 | 102 | 104 | -88 | 92
O=C(CNC(=O)c1ccc2c(c1)OCO2)NC1CC1 | 101 | 106 | 0 | 33
O=C(O)c1ccccc1N=Cc1ccccc1Cl | 105 | 104 | -5 | ·
CC1CC(C)CN(c2cnn(C34CC5CC(CC(C5)C3C(=O)O)C4)c(=O)c2Cl)C1 (stereo unspecified) | 101 | 102 | -38 | 5
CCOC(=O)N1CCC(NC(=O)c2cc3c(-c4ccc(Cl)cc4)nn(C)c3s2)CC1 | 99 | 102 | -37 | 106
CCOC(=O)C1=CC(=C2C(=O)N(CC)C(=S)N(CC)C2=O)c2ccccc2O1 | 110 | 115 | -113 | -23
CCOC(=O)N1CCN(C(=O)CSc2nnc(COc3ccc(Cl)cc3)o2)CC1 | 101 | 103 | -5 | -2
Cc1cc(C(c2nnnn2Cc2ccccc2)N2CCOCC2)c(C)n1-c1ccc2c(c1)OCO2 (stereo unspecified) | 101 | 99 | -48 | 2
NC(=O)C1CCN(c2nc(Nc3ccc(Cl)cc3)nc(Nc3ccc(Cl)cc3)n2)CC1 | 103 | 103 | 0 | -3
NNC(=O)C1C(=O)NCC1c1ccccc1 (stereo unspecified) | 101 | 103 | -6 | -3
O=C1c2cccc3cccc(c23)N1CN1CCc2ccccc2C1 | 100 | 103 | -21 | -40
COC(=O)c1cc(O)cc(C(=O)OC)c1 | 99 | 96 | -4 | 2
O=C(CCSCc1cnn(-c2ccccc2)c1-n1cccc1)NCc1ccc2c(c1)OCO2 | 105 | 105 | -33 | -4
COCCn1c(O)c(C=NCCCCCc2nc(-c3ccc(C)cc3)no2)c(=O)[nH]c1=S | 95 | 103 | 7 | 3
Cc1cc(/C=C/C(=O)NCCc2ccccn2)c(C)n1Cc1ccco1 | 101 | 95 | 9 | 8
O=C(NCCc1ccccc1)c1cc2ccccn2n1 | 102 | 106 | -9 | 23
CC1CCCCC1NC(=O)CSc1nnc(CN2CCCC2=O)o1 (stereo unspecified) | 103 | 93 | -18 | 11
